StopGo reporter: lowers the luciferase signal of an FMDV 2A StopGo reporter | hit rate 1.2% among 410,000 | AID 1159524 | Potency, µM (highest dose often 57.9 µM), for inactives: top-dose signal change, negative = less light | human cells with a luciferase reporter of 2A StopGo recoding; control for the full effect not named in the record; active = well fitted falling curve with a large enough effect; inconclusive = small, poorly fitted or top-dose-only effect; inactive = no such curve, though single readings can be large or run the other way; tested in HEK293T cells; further: on the % scale 0 is the no-effect control and ±100 the full control effect; nearly all actives have a fitted effect of over 45% in size; luciferase light after 4 h
RE007 growth inh: less growth of the S. pombe RE007 Vpr strain | S. pombe RE007 Vpr strain, BacTiter-Glo ATP luminescence, 24 h; control for the full effect not named in the record | Potency, µM (titrated, usually from 92.2 µM), for inactives: at the top dose activity change, negative = less growth | hit rate 0.21% among 360,000; active = well fitted falling curve with a large enough effect; inconclusive = small, poorly fitted or top-dose-only effect; inactive = no such curve, though single readings can be large or run the other way;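 further: on the % scale 0 is the no-effect control and ±100 the full control effect; nearly all actives have a fitted effect of over 50% in size; the assay follows cell death caused by Vpr and the record does not say whether a fall means rescue or toxicity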
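Fission yeast strain RE007, carrying one chromosomally integrated HIV-1 vpr copy, was seeded at OD 0.01 in PMG+AL medium with 23 nL pinned compound. After 24 h at 30 °C and 99% humidity, viability was read by BacTiter-Glo luminescence.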
SARS PLP yeast: blocks SARS-CoV papain-like protease in a yeast assay; S. cerevisiae expressing SARS-CoV PLpro, growth rescue; control for the full effect not named in the record; AID 485353; hit rate 0.19% among 330,000; Potency, µM (highest dose often 32.9 µM), for inactives: at the top dose activity, positive = growth rescue; active means well fitted rising curve with a large enough effect; inconclusive means small, poorly fitted or top-dose-only effect; inactive means no such curve, though single readings can be large or run the other way; further: 0% is about no effect; nearly all actives have a fitted effect of over 55% in size; growth read by luminescence after 48 h
NS1 function inh: blocks influenza NS1 protein function. AID 2326. hit rate 0.4% among 270,000. S. cerevisiae slowed by influenza A NS1, growth recovery by OD600. Potency, µM (highest dose often 46.1 µM), for inactives: at the top dose activity, positive = more growth; active means well fitted rising curve with a large enough effect; inconclusive means small, poorly fitted or top-dose-only effect; inactive means no such curve, though single readings can be large or run the other way; further: nearly all actives have a fitted effect of over 50% in size
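Recovery from NS1-induced slow growth read by OD600 in budding yeast switched to galactose assay medium (pH 6.0, -URA) at 1:100 dilution. Compound 23 nl per well; the matching strain lacking NS1 serves as control.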
LASV entry inh: inhibitors of Lassa virus binding or cell entry; Lassa virus pseudotype entry inhibition, cell reporter; control for the full effect not named in the record; Potency, µM (doses to about 37.9 µM), inactives show at the top dose activity change, negative = inhibition, most hits filed as inhibitors; hit rate 1.2% among 300,000; active means well fitted inhibition curve with a large enough effect; inconclusive means small, poorly fitted or top-dose-only effect, or effect the other way; inactive means flat fitted curve, though single readings scatter; tested in HEK293 cells; further: on the % scale 0 is the no-effect control and ±100 the full control effect; nearly all actives have a fitted effect of over 50% in size; luciferase read-out
Cruzain noTriton: blocks cruzain activity in detergent-free assay; AID 1476; hit rate 2.3% among 200,000; Potency, µM, for the others: max response, negative = inhibition, actives largely listed as inhibitors; purified cruzain, Z-FR-AMC fluorescence, no detergent; P25779;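 further: plate controls were enzyme without inhibitor for no effect and buffer without enzyme for full effect; nearly all actives have a fitted effect of over 40% in size; top concentration of the series not given in the record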
Target sequence (P25779 123-467 limits assumed): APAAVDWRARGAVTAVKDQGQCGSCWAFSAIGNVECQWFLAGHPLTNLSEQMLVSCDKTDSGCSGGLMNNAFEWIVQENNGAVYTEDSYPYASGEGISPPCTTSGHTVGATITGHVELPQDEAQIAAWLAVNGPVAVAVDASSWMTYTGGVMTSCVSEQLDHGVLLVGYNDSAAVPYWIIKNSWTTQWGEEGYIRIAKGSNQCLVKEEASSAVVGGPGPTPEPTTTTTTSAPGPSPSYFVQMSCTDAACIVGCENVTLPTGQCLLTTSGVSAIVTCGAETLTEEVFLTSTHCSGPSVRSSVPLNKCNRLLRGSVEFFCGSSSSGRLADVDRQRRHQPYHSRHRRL
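Purified cruzain at 1.5 nM, pre-incubated 15 min with compound at room temperature in 100 mM sodium acetate pH 5.5, 5 mM DTT, 0.00005% Triton X-100. Reaction started with 2 uM Z-FR-AMC; AMC fluorescence increase over 60 s gives rate.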
MARV entry inh: blocks Marburg virus binding to or entry into cells | Marburg virus pseudotyped entry inhibition, cell reporter; control for the full effect not named in the record; about a third of the inactives were read at about 46 µM | Potency, µM (series often up to 37.8 µM), without a hit: top-dose activity change, negative = inhibition, most hits filed as inhibitors | hit rate 1.8% among 300,000; active = well fitted inhibition curve with a large enough effect; inconclusive = small, poorly fitted or top-dose-only effect, or effect the other way; inactive = flat fitted curve, though single readings scatter; tested in HEK293 cells; about a fifth of its hits are not listed in these tables; further: on the % scale 0 is the no-effect control and ±100 the full control effect; luciferase read-out
Cruzain inh Det: inhibitors of Trypanosoma cruzi cruzain with detergent; hit rate 0.43% among 200,000; purified cruzain, Z-FR-AMC fluorescence, 0.01% Triton; Potency, µM, for inactives: max response, negative = inhibition, hits mostly inhibitors; P25779;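 further: plate controls were neutral wells for no effect and buffer without enzyme for full effect; nearly all actives have a fitted effect of over 40% in size; top concentration of the series not given in the record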
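Cruzain (1.5 nM) preincubated 15 min at RT with compound in 100 mM sodium acetate pH 5.5, 5 mM DTT, 0.01% Triton X-100. Reaction started with 2 uM Z-FR-AMC; AMC fluorescence (ex 360/em 450 nm) change over 60 s gave rate.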
An asterisk follows results filed as active; [ ] = remark or other dose. Unless noted, the call rests on the fitted dose curve; in most records, active means well fitted curve in the direction sought with a large enough effect; inconclusive means small, poorly fitted or top-dose-only effect, or another doubt; inactive means no such curve, though single readings can be large; an effect the other way counts as inactive or inconclusive. Potency means the concentration at half of the fitted maximal effect.

How did CC1=C(C(=O)OCc2ccccc2)C(/C=C/c2ccccc2)N2C(=O)CCSC2=N1 (stereo unspecified) do in these assays?
StopGo reporter: 9%; RE007 growth inh: 0%; SARS PLP yeast: 12%; NS1 function inh: inconclusive; LASV entry inh: -10%; Cruzain noTriton: -29%; MARV entry inh: inconclusive; Cruzain inh Det: -4.4%

Results for O=C1C(=O)N(Cc2cccnc2)C(c2ccccn2)/C1=C(/O)c1ccc(Br)cc1 (stereo unspecified) ?
StopGo reporter: 9%; RE007 growth inh: 7%; SARS PLP yeast: 0%; NS1 function inh: 12%; LASV entry inh: 7%; Cruzain noTriton: -8%; MARV entry inh: -4%; Cruzain inh Det: 0.5%

How did Cc1ccc2ncc(C(=O)Nc3cccc(C(F)(F)F)c3)c(=O)n2c1 do in these assays?
StopGo reporter: 10%; Cruzain noTriton: 13%; MARV entry inh: 5%[46.1 µM]; Cruzain inh Det: 3.0%

What do the screens show for `N#CC1=C(N)Oc2nc[nH]c(=O)c2C1c1cccs1` (stereo unspecified)?
StopGo reporter: 0%; RE007 growth inh: 11%; SARS PLP yeast: -3%; LASV entry inh: 1%; MARV entry inh: 3%[46.1 µM]

What do the screens show for `Cc1nn(C)c2c1c(C(F)(F)F)cc(=O)n2CC(=O)NCc1ccc(OC(C)C)cc1`?
StopGo reporter: -11%; LASV entry inh: 5%[46.1 µM]; Cruzain noTriton: -8%; Cruzain inh Det: 10%

Results for C=CCOc1ccccc1CN(CCc1ccccc1)C(=O)c1cccc(S(C)(=O)=O)c1 ?
StopGo reporter: 16%; RE007 growth inh: 10%; SARS PLP yeast: -2%; NS1 function inh: 2%; LASV entry inh: inconclusive; MARV entry inh: inconclusive

How did O=C(CN(c1cc(C(F)(F)F)ccc1Cl)S(=O)(=O)c1ccccc1)NCc1cccnc1 do in these assays?
StopGo reporter: 19%; RE007 growth inh: -23%; SARS PLP yeast: 2%; NS1 function inh: -1%; LASV entry inh: -13%; MARV entry inh: -15%

Results for CC(c1nnc(SCC(=O)NC(=O)NCc2ccco2)n1-c1ccc(Cl)cc1)N(C)C (stereo unspecified) ?
RE007 growth inh: 3%; SARS PLP yeast: 4%; NS1 function inh: 6%; LASV entry inh: -2%; Cruzain noTriton: -3%; MARV entry inh: -8%; Cruzain inh Det: -2.7%

How did CCc1ccc(-c2nc(CS(=O)CC(=O)NCCCN3CCC(C)CC3)c(C)o2)cc1 (stereo unspecified) do in these assays?
StopGo reporter: -8%; RE007 growth inh: -4%; SARS PLP yeast: -2%; NS1 function inh: 6%

What do the screens show for `CCOCCCNc1nc2c(c(=O)[nH]c(=O)n2C)n1CCCc1ccccc1`?
StopGo reporter: -11%; RE007 growth inh: -10%; SARS PLP yeast: 6%; NS1 function inh: -1%; LASV entry inh: -13%; Cruzain noTriton: -2%; MARV entry inh: 5%; Cruzain inh Det: 0.1%

How did COc1ccc(NC(=O)CN(C)C(=O)c2cnc(Cl)c(Cl)c2)cc1 do in these assays?
StopGo reporter: 8%; RE007 growth inh: 4%; SARS PLP yeast: 1%; NS1 function inh: 3%; LASV entry inh: 4%[46.1 µM]; MARV entry inh: 19%[46.1 µM]

Results for Cc1ccc2oc(=O)c(/C=C(\O)c3sc(C)nc3C)nc2c1 ?
StopGo reporter: 8%; RE007 growth inh: -12%; SARS PLP yeast: 9%; NS1 function inh: 8%; LASV entry inh: -2%; Cruzain noTriton: 24%; MARV entry inh: 9%; Cruzain inh Det: -2.1%

Results for CN1C(=O)N(C)c2ccc(C=O)c3cccc1c23 ?
StopGo reporter: -9%; RE007 growth inh: -12%; SARS PLP yeast: -1%; LASV entry inh: inconclusive; MARV entry inh: inconclusive

How did COc1ccc(Cl)cc1S(=O)(=O)Nc1ccc2[nH]c(=O)[nH]c2c1 do in these assays?
StopGo reporter: -7%; LASV entry inh: inconclusive; Cruzain noTriton: -5%; MARV entry inh: 2%[46.1 µM]; Cruzain inh Det: -4.9%

How did NS(=O)(=O)c1ccc(NC(=O)c2ccc(-c3ccccc3)cc2)cc1 do in these assays?
StopGo reporter: -2%; RE007 growth inh: 4%; SARS PLP yeast: -1%; LASV entry inh: 12%[46.1 µM]; MARV entry inh: -4%[46.1 µM]

What do the screens show for `Cc1cccc(C(=O)NCC(=O)OCc2cc(=O)n3nc(C)sc3n2)c1`?
StopGo reporter: -28%; LASV entry inh: -4%[46.1 µM]; Cruzain noTriton: -11%; Cruzain inh Det: -2.5%

Results for O=S(=O)(c1ccccc1)N1CCN(S(=O)(=O)c2ccc(F)cc2)CC1 ?
StopGo reporter: -10%; RE007 growth inh: 5%; SARS PLP yeast: 5%; NS1 function inh: 0%

What do the screens show for `Cc1ccc(CN2CCC(CNC(=O)Nc3cccc(Cl)c3C)C2)cc1` (stereo unspecified)?
StopGo reporter: -11%; LASV entry inh: -22%[46.1 µM]; Cruzain noTriton: 3%; MARV entry inh: inconclusive; Cruzain inh Det: 1.8%

Results for Cc1ccc(NC(=O)c2n[nH]c(=O)c3ccccc23)cc1S(=O)(=O)N1CCOCC1 ?
StopGo reporter: inconclusive; RE007 growth inh: -4%; SARS PLP yeast: 0%; LASV entry inh: 19%; MARV entry inh: inconclusive

How did CCC(=O)Nc1cccc(C2=NOC3(C2)C[C@H](C(N)=O)N(C(=O)CC#N)C3)c1 (stereo partly specified) do in these assays?
StopGo reporter: -21%; RE007 growth inh: -16%; SARS PLP yeast: -1%; NS1 function inh: 4%

Results for CCc1nnc(NC(=O)CSc2nc(C)c3c(c2C#N)CCCC3)s1 ?
StopGo reporter: -22%; RE007 growth inh: 4%; SARS PLP yeast: -5%; NS1 function inh: -10%; LASV entry inh: inconclusive; Cruzain noTriton: 0%; MARV entry inh: inconclusive; Cruzain inh Det: -3.3%

How did CCC(C)NC(=O)c1ccc(NC(=O)C2=C(C)OCCS2)cc1 (stereo unspecified) do in these assays?
StopGo reporter: 5%; RE007 growth inh: -6%; SARS PLP yeast: 1%; NS1 function inh: -1%; LASV entry inh: inconclusive; MARV entry inh: -8%

What do the screens show for `O=C(Nc1ccon1)c1ccc2c(c1)OCO2`?
StopGo reporter: 46%[activator]; RE007 growth inh: 2%; SARS PLP yeast: -1%; NS1 function inh: 6%; LASV entry inh: 14%; Cruzain noTriton: -22%; MARV entry inh: 5%; Cruzain inh Det: -6.1%

Results for O=C(NCCN1CCOCC1)c1ccc2c(c1)N(Cc1ccccc1F)C(=O)c1ccccc1S2(=O)=O ?
StopGo reporter: 0%; RE007 growth inh: -14%; SARS PLP yeast: 5%; NS1 function inh: -5%

What do the screens show for `COC(=O)c1ccccc1NC(=O)c1ccco1`?
StopGo reporter: -25%; RE007 growth inh: -16%; SARS PLP yeast: -2%; NS1 function inh: -45%; LASV entry inh: 4%; Cruzain noTriton: -4%; MARV entry inh: -15%; Cruzain inh Det: -4.4%

Results for CCOC(=O)c1ccccc1NC(=O)CSc1ccc(-c2cccs2)nn1 ?
StopGo reporter: -16%; LASV entry inh: -7%[46.1 µM]; Cruzain noTriton: -7%; Cruzain inh Det: -5.7%

Results for Cc1c([N+](=O)[O-])c([N+](=O)[O-])nn1CC(=O)N1CCOCC1 ?
StopGo reporter: -25%; RE007 growth inh: 12%; SARS PLP yeast: -1%; LASV entry inh: 13%[46.1 µM]; MARV entry inh: 1%[46.1 µM]

What do the screens show for `CC1=NN(c2ccccc2)C(=O)/C1=C/N(C)C`?
StopGo reporter: inconclusive; RE007 growth inh: inconclusive; SARS PLP yeast: -2%; NS1 function inh: 3%; LASV entry inh: 24%[46.1 µM]; MARV entry inh: 32%[46.1 µM]

Results for COc1ccc(Oc2ncccc2[N+](=O)[O-])cc1 ?
StopGo reporter: 0%; RE007 growth inh: -4%; SARS PLP yeast: 1%; NS1 function inh: 2%; LASV entry inh: 8%[46.1 µM]; MARV entry inh: inconclusive

Results for CC(=O)Nc1ccc(C)cc1NC(C)=O ?
StopGo reporter: -5%; RE007 growth inh: -3%; SARS PLP yeast: 0%; NS1 function inh: 27%; LASV entry inh: 1%; Cruzain noTriton: -11%; MARV entry inh: 21%[46.1 µM]; Cruzain inh Det: 1.3%

Results for CCn1c(=O)c2cc(C(=O)NCCCN3CCN(c4ccc(F)cc4)CC3)sc2c2ccccc21 ?
StopGo reporter: inconclusive; LASV entry inh: 7%[46.1 µM]; Cruzain noTriton: -3%; MARV entry inh: inconclusive; Cruzain inh Det: -0.4%

How did CCCCN(C)C(=O)CN1C(=O)CCn2nc(-c3cn(C)c4ccccc34)cc21 do in these assays?
StopGo reporter: -8%; LASV entry inh: 0%[46.1 µM]; Cruzain noTriton: inconclusive; Cruzain inh Det: 2.5%

What do the screens show for `O=C(Nc1ccc(F)cc1)c1ccccc1F`?
RE007 growth inh: -4%; NS1 function inh: -12%; LASV entry inh: 16%; Cruzain noTriton: -1%; MARV entry inh: 24%; Cruzain inh Det: 7.1%

How did Cn1c(SCC(=O)NC2CC2)nnc1-c1cccs1 do in these assays?
StopGo reporter: -3%; RE007 growth inh: 14%; SARS PLP yeast: -7%; NS1 function inh: -30%; LASV entry inh: 8%[46.1 µM]; MARV entry inh: 28%[46.1 µM]

How did COC(=O)CC(NC(=O)c1ccco1)c1cccc2ccccc12 (stereo unspecified) do in these assays?
StopGo reporter: -3%; RE007 growth inh: -3%; SARS PLP yeast: 20%; NS1 function inh: 6%; LASV entry inh: 11%; Cruzain noTriton: 4%; MARV entry inh: -13%[46.1 µM]; Cruzain inh Det: 3.8%

Results for O=C(O)c1ccccc1SCC(=O)N1c2ccccc2Sc2ccccc21 ?
StopGo reporter: 21%; RE007 growth inh: 1%; SARS PLP yeast: 23%; NS1 function inh: inconclusive; LASV entry inh: 0%; Cruzain noTriton: 21%; MARV entry inh: -10%; Cruzain inh Det: -7.4%

Results for CCOC(=O)c1ccc(NC(=O)c2noc3c2CCCC3)cc1 ?
StopGo reporter: 10%; LASV entry inh: 19%[46.1 µM]; Cruzain noTriton: 6%; Cruzain inh Det: -7.6%
